Lassa entry inh: Lassa virus entry inhibition. Lassa virus pseudotype entry inhibition, cell reporter; control for the full effect not named in the record. Potency, µM (titrated, usually from 37.9 µM), for the others: at the top dose activity change, negative = inhibition, hits mostly inhibitors. 300,000 compounds, 1.2% hits; active means well fitted inhibition curve with a large enough effect; inconclusive means small, poorly fitted or top-dose-only effect, or effect the other way; inactive means flat fitted curve, though single readings scatter; tested in HEK293 cells; also: % is scaled to controls: 0 for no effect and ±100 for the full control effect; nearly all actives have a fitted effect of over 50% in size; luciferase read-out
Cruzain inh noDet: inhibitors of Trypanosoma cruzi cruzain without detergent; 200,000 compounds, 2.3% hits; P25779; AID 1476; purified cruzain, Z-FR-AMC fluorescence, no detergent; Potency, µM, for inactives: max response, negative = inhibition, most hits filed as inhibitors;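 also: plate controls were enzyme without inhibitor for no effect and buffer without enzyme for full effect; nearly all actives have a fitted effect of over 40% in size; top concentration of the series not given in the record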
Target sequence (P25779 123-467 limits assumed): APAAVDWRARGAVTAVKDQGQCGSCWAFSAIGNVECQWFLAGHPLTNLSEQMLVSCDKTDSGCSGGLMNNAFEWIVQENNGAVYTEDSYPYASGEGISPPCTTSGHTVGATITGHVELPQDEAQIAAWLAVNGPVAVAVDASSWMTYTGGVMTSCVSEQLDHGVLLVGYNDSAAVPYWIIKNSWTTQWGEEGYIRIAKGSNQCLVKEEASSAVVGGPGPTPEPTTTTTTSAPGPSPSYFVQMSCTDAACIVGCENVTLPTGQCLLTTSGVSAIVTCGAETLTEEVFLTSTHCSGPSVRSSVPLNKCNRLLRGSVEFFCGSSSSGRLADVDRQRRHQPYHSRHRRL
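Purified cruzain at 1.5 nM, pre-incubated 15 min with compound at room temperature in 100 mM sodium acetate pH 5.5, 5 mM DTT, 0.00005% Triton X-100. Reaction started with 2 uM Z-FR-AMC; AMC fluorescence increase over 60 s gives rate.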
NS1 inh: blocks influenza NS1 protein function; S. cerevisiae slowed by influenza A NS1, growth recovery by OD600; Potency, µM (doses to about 46.1 µM), without a hit: at the highest dose activity, positive = more growth; AID 2326; 270,000 compounds, 0.4% hits; active means well fitted rising curve with a large enough effect; inconclusive means small, poorly fitted or top-dose-only effect; inactive means no such curve, though single readings can be large or run the other way; also: nearly all actives have a fitted effect of over 50% in size
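Compounds were scored for reversing the slow growth caused by influenza A NS1 in S. cerevisiae, measured by optical density at 600 nm. Assay medium contained 2% galactose at pH 6.0; NS1-free yeast of the same strain were the positive control.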
StopGo reporter: FMDV 2A StopGo reporter, luciferase signal | human cells with a luciferase reporter of 2A StopGo recoding; control for the full effect not named in the record | Potency, µM (doses to about 57.9 µM), inactives show top-dose signal change, negative = less light | 410,000 compounds, 1.2% hits; active = well fitted falling curve with a large enough effect; inconclusive = small, poorly fitted or top-dose-only effect; inactive = no such curve, though single readings can be large or run the other way; tested in HEK293T cells; also: % is scaled to controls: 0 for no effect and ±100 for the full control effect; nearly all actives have a fitted effect of over 45% in size; luciferase light after 4 h
RE007 growth inh: less growth of the S. pombe RE007 Vpr strain | S. pombe RE007 Vpr strain, BacTiter-Glo ATP luminescence, 24 h; control for the full effect not named in the record | Potency, µM (series often up to 92.2 µM), without a hit: at the highest dose activity change, negative = less growth | 360,000 compounds, 0.21% hits | AID 651644; active = well fitted falling curve with a large enough effect; inconclusive = small, poorly fitted or top-dose-only effect; inactive = no such curve, though single readings can be large or run the other way;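 also: % is scaled to controls: 0 for no effect and ±100 for the full control effect; nearly all actives have a fitted effect of over 50% in size; the assay follows cell death caused by Vpr and the record does not say whether a fall means rescue or toxicity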
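Fission yeast RE007 carrying one integrated HIV-1 vpr copy, seeded at OD 0.01 in PMG+AL medium with 23 nL pinned compound. Grown 24 h at 30 degrees; viability read by BacTiter-Glo luminescence after 5 min.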
SARS PLpro yeast: blocks SARS-CoV papain-like protease in a yeast assay | 330,000 compounds, 0.19% hits | Potency, µM (highest dose often 32.9 µM), for inactives: top-dose activity, positive = growth rescue | S. cerevisiae expressing SARS-CoV PLpro, growth rescue; control for the full effect not named in the record; active means well fitted rising curve with a large enough effect; inconclusive means small, poorly fitted or top-dose-only effect; inactive means no such curve, though single readings can be large or run the other way; also: 0% is about no effect; nearly all actives have a fitted effect of over 55% in size; growth read by luminescence after 48 h
MARV entry inh: Marburg virus entry inhibition; Marburg virus pseudotyped entry inhibition, cell reporter; control for the full effect not named in the record; about a third of the inactives were read at about 46 µM; Potency, µM (highest dose often 37.8 µM), without a hit: top-dose activity change, negative = inhibition, most hits filed as inhibitors; 300,000 compounds, 1.8% hits; AID 540276; active = well fitted inhibition curve with a large enough effect; inconclusive = small, poorly fitted or top-dose-only effect, or effect the other way; inactive = flat fitted curve, though single readings scatter; tested in HEK293 cells; about a fifth of its hits are not listed in these tables; also: % is scaled to controls: 0 for no effect and ±100 for the full control effect; luciferase read-out
Cruzain Triton: inhibitors of Trypanosoma cruzi cruzain with detergent; P25779; purified cruzain, Z-FR-AMC fluorescence, 0.01% Triton; Potency, µM, for the others: max response, negative = inhibition, most hits filed as inhibitors; 200,000 compounds, 0.43% hits; AID 1478;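 also: plate controls were neutral wells for no effect and buffer without enzyme for full effect; nearly all actives have a fitted effect of over 40% in size; top concentration of the series not given in the record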
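15 min RT preincubation of 1.5 nM cruzain with compound, then 2 uM Z-FR-AMC added; kinetic AMC fluorescence, 60 s delta. Triton X-100 0.01%, pH 5.5.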
* = called active by the depositor; ? = inconclusive; . = no result given; & = joins results of further samples; [ ] = dose if it differs, or a comment. Unless noted, calls follow the shape of the dose curve; as a rule, active = well fitted curve in the direction sought with a large enough effect; inconclusive = small, poorly fitted or top-dose-only effect, or another doubt; inactive = no such curve, though single readings can be large; an effect the other way counts as inactive or inconclusive. Potency is read from the fitted curve at half-maximal effect. Random draw from the library; overall some 4.7% were active at least once.

SMILES	Lassa entry inh	Cruzain inh noDet	NS1 inh	StopGo reporter	RE007 growth inh	SARS PLpro yeast	MARV entry inh	Cruzain Triton
COc1ccc(C(=O)CSc2nn3c(=O)c(C(C)(C)C)nnc3s2)cc1	-22%	10%	-22%	14µM*	-6%	5%	-8%	-13%
O=C(C1CCCN(S(=O)(=O)c2cccc3nsnc23)C1)N1CCN(c2cccc(Cl)c2)CC1 (stereo not given)	?	?	.	11µM*	.	.	?	-4.0%
Cc1cc(=O)oc2c(C)c(OC(C)C(=O)NCCCN3CCCC3=O)ccc12 (stereo not given)	.	.	6%	-1%	4%	?	.	.
c1ccc(OCCOCCN2CCc3ccccc3C2)cc1	-14%	-2%	-1%	-18%	16%	0%	-7%	0.1%
CCN=C1SC(C(=O)Nc2ccc(OC)cc2)CC(=O)N1CC (stereo not given)	-4%	.	.	-13%	3%	2%	-1%[46.1 µM]	.
Cc1ccc(C2=NN(C(=O)CSc3nccn3C)C(c3ccco3)C2)cc1 (stereo not given)	?	.	-12%	-10%	-14%	0%	?	.
CC(C)Sc1nc2c(c(=O)[nH]c(=O)n2C)n1Cc1ccc(Cl)cc1	?	-2%	3%	-19%	-1%	10%	-22%	-2.0%
O=C1NC(=S)N(c2ccccc2)C(=O)/C1=C/c1ccco1	21%[46.1 µM]	.	?	35µM*	2%	-5%	?	.
COC(=O)C1=C(C(=O)OC)C(C(=O)OC)C(C(=O)OC)C(C(=O)OC)(C(=O)OC)C(C(=O)OC)=C1C(=O)OC (stereo not given)	?	.	.	40µM*	-5%	.	?	.
O=S(=O)(N1CCCCCC1)N1CCN(S(=O)(=O)N2CCOCC2)CC1	11%	2%	2%	0%	1%	2%	-2%	3.2%
Cc1ccc2c(=O)[nH]c(Nc3nc(C)cc(-c4ccccc4)n3)nc2c1	.	.	2%	7%	14%	0%	.	.
Cc1csc2nc(CNS(=O)(=O)c3ccc4c(c3)OCCO4)cn12	.	-2%	-6%	-4%	8%	-3%	.	-0.9%
COc1cccc(C(=O)NC2=NC(c3ccccc3F)CC(=O)N2)c1 (stereo not given)	5%[46.1 µM]	3%	.	5%	.	.	-12%[46.1 µM]	-2.4%
CC(=O)c1ccccc1OCCn1nnc(-c2ccc(C)cc2)n1	13%	5%	-14%	-24%	13%	-20%	?	-8.4%
COc1ccc(-c2onc(C)c2C)cc1S(=O)(=O)Nc1cc(Cl)ccc1C	?	3%	.	65%[activator]	.	.	.	-5.8%
Cc1ccc(OCCCN2C(=O)C(=O)c3cccc(C)c32)cc1	?	?	-17%	-11%	-24%	-28%	?	-4.4%
CCc1ccc(Oc2coc3cc(OCC(=O)Nc4cc(C)ccc4C)ccc3c2=O)cc1	-6%[46.1 µM]	25µM*	-2%	-14%	-14%	4%	-2%[46.1 µM]	2.2%
COc1ccc(CCNC(=O)c2ccc(CS(=O)(=O)c3ccc(C)cc3)o2)cc1OC	?	-7%&6%	-4%	32µM*	7%	2%	?	-3.6%&-0.5%
CC(C)c1ccc(NC(=O)N(CCc2nc3ccccc3[nH]2)C2CCCC2)cc1	-5%	-8%	6%	10%	-18%	-3%	-28%	-3.0%
Cc1onc(-c2ccccc2)c1C(=O)n1cc(Br)cn1	15%	-6%	8%	-21%	-6%	-13%	11%	-3.6%
CS(=O)(=O)c1ccc2c(c1)SC1=NC(=O)/C(=C/c3ccco3)C(=N)N12	0%	-11%	18%	4%	-14%	4%	?	-23%
COc1ccc2nc(NC(=O)CSc3cn[nH]n3)sc2c1	.	.	5%	35%[activator]	4%	12%	?	.
Fc1ccc2nc(C(F)(F)F)cc(N3CCOCC3)c2c1	?	.	4%	0%	-1%	1%	4%[46.1 µM]	.
Cc1cc(=O)[nH]c(SCC(=O)N2CCCCCC2)n1	8%	-2%	-11%	46%[activator]	3%	5%	8%	1.1%
CCCCn1c(N)c(N(CCOC)C(=O)c2ccc(-c3ccccc3)cc2)c(=O)[nH]c1=O	9%	.	.	-9%	-32%	-2%	-9%	.
CCOc1ccc(CCNC(=O)Cn2nnc(-c3ccccc3Cl)n2)cc1OCC	4%[46.1 µM]	21%	.	-12%	.	.	-14%[46.1 µM]	-1.2%
CC(=O)c1cccc(NC(=O)c2cnccn2)c1	.	.	-7%	10%	8%	-4%	.	.
COc1ccccc1NC(=O)c1ccc(NC(=O)COC(=O)C2CCCCC2)cc1	.	-17%	-10%	-9%	-4%	-31%	.	-13%
O=C(N/C(=C\c1ccccc1)C(=O)N1CCOCC1)c1cccc(Br)c1	8%	.	22%	20%	2%	2%	-30%	.
CCC(Oc1ccccc1C)C(=O)N1CCCN(C)CC1 (stereo not given)	.	.	3%	12%	-1%	23%	.	.
CCc1nnc(NC(=O)CN2CCOCC2)s1	5%	-7%	-5%	16%	5%	2%	3%	0.4%
CC(=O)c1ccc(NC(=O)Nc2nnc(N3CCCC(C)C3)s2)cc1 (stereo not given)	18%[46.1 µM]	-9%	.	0%	.	.	-3%[46.1 µM]	-2.4%
O=C(Cn1ccc(C(F)(F)F)n1)Nc1ccc(S(=O)(=O)NCc2ccco2)cc1	1%	-12%	7%	18%	-9%	-1%	15%&15%	-4.4%
O=C(NC1CCCCC1NC(=O)c1ccco1)c1ccco1 (stereo not given)	3%	-2%	2%	-15%	10%	-5%	-6%	3.5%
COC(=O)[C@@H](NC(=O)Nc1cccc(OC)c1)C(C)C	15%	5%	11%	-10%	-5%	8%	2%	0.9%
Cc1ccc(CNc2ccc(-c3nc(-c4cccnc4)no3)cc2[N+](=O)[O-])cc1	-9%[46.1 µM]	?	.	-10%	.	.	-36%[46.1 µM]	-4.3%
Cc1ccc(S(=O)(=O)/N=C2\C=C(NS(=O)(=O)c3ccccc3)C(=O)c3ccccc32)c(C)c1	-15%	.	.	34%[activator]	-13%	.	0%[46.1 µM]	.
CCOC(=O)c1c(NC(=O)/C=C/c2ccccc2)sc2c1CCCC2	-5%[46.1 µM]	1%	.	-17%	.	.	.	1.0%
Cc1ccc(CN2CCCN(C)CC2)c(C)c1	-3%	.	11%	-16%	-12%	-7%	?	.
COc1cc(CN2CCN(CCCc3ccccc3)CC2CCO)cc(OC)c1 (stereo not given)	-15%[46.1 µM]	.	7%	-1%	16%	3%	?	.
Cc1cc(N2CCN(C)CC2)nc2ccc(NC(=S)NC3CC3)cc12	.	.	-5%	-15%	-4%	-1%	.	.
COc1ccc(N2C(=O)c3ccccc3C(C)(C)C2=O)cc1	-8%	.	-133%	-18%	3%	-7%	-11%[46.1 µM]	.
Cc1ccc(C)c(CSc2nc3[nH]ncc3c(=O)[nH]2)c1	?	.	.	-13%	-1%	-1%	?	.
C(=N\N=C\c1ccccn1)/c1ccccn1	7%[46.1 µM]	.	-2%	21%	-7%	-2%	7%[46.1 µM]	.
O=C(Nc1cccnc1)c1ccccc1NS(=O)(=O)c1ccc(F)cc1	?	.	.	?	-7%	-1%	?	.
CCOC(=O)N1CCc2c(sc(NCc3ccc(OC)c(Br)c3)c2C(=O)Nc2cc(OC)ccc2OC)C1	-16%[46.1 µM]	?	.	-11%	.	.	.	-13%
O=C(N/N=C/C1C(=O)NC(=S)N(c2ccccc2)C1=O)c1cc(Br)c(O)c(Br)c1 (stereo not given)	9%	.	11%	6%	-2%	-4%	0%[46.1 µM]	.
O=C(N/N=C/c1ccc[nH]1)c1ccccc1OCc1ccccc1Cl	21%	.	.	-27%	31%	-1%	-6%[46.1 µM]	.
Cc1cccc(N(Cc2ccccc2)C(=O)CSC(C)C(=O)Nc2cc(C)on2)c1 (stereo not given)	?	.	.	?	-7%	0%	?	.
COc1ccc(NC(=O)CCS(=O)(=O)c2cc3c4c(c2)CCN4C(=O)CC3)c(OC)c1	16%[46.1 µM]	-8%	.	-5%	.	.	.	-13%
Cc1nc2c(C)[n+](CC(=O)c3ccccc3)ccc2n1C	.	.	-2%	-13%	-10%	0%	.	.
CCOc1ccc(-c2nc(N)ncc2-c2ccccc2OC)c(O)c1	?	.	2%	-12%	-3%	0%	?	.
CCOP(=O)(OCC)/C(=N/OC(=O)c1ccc(Cl)cc1Cl)C(N)=O	?	.	3%	-2%	10%	0%	27%[46.1 µM]	.
CC(C(=O)NCc1cccc(Br)c1)n1ncn2cccc2c1=O (stereo not given)	?	-4%	.	0%	.	.	?	-7.6%
Cc1ccc(OCC(=O)N(C)CC(=O)NCc2ccco2)c(Br)c1	18%	.	.	26%	-8%	1%	4%	.
COc1cc2c(cc1OC)CN(c1ccc(-c3ccccc3OC)nn1)CC2	?	8%	-78%	35µM*	?	-3%	?	-3.7%
Cc1cc(NC(=O)c2ccccc2-c2ccccc2C(=O)O)no1	?	6%	-3%	-5%	21%	16%	15%	0.4%
CCN(CC)C(=O)CSc1nnc(-c2ccco2)o1	-8%	4%	6%	54%[activator]	28%	31%	-13%[46.1 µM]	-1.2%
Cc1ccc(Cl)cc1NC(=O)Nc1nnc(N(C)Cc2ccccc2)s1	-8%[46.1 µM]	0%	.	-10%	.	.	-11%[46.1 µM]	-7.4%
O=C(Nc1cccc(C(=O)O)c1)/C(=C\c1ccc(F)cc1)NC(=O)c1ccco1	.	.	4%	16%	3%	1%	0%[46.1 µM]	.
The listing continues:
SMILES	Lassa entry inh	Cruzain inh noDet	NS1 inh	StopGo reporter	RE007 growth inh	SARS PLpro yeast	MARV entry inh	Cruzain Triton
COc1ccccc1CNC(=O)C(CC(C)C)NC(=O)C1CCC(C)CC1 (stereo not given)	1%	9%	7%	-10%	5%	5%	-13%	-4.0%
O=C(Nc1ccc(N2CCC(N3CCCCC3)CC2)c(C(=O)O)c1)c1ccccc1	-2%[46.1 µM]	18%	.	-19%	.	.	.	1.9%
Cc1c(CCC(=O)NC2CC2)c(=O)oc2cc(O)ccc12	.	.	-5%	-8%	2%	-10%	.	.
O=C(Cn1nc(-c2ccc(Cl)cc2)ccc1=O)NCc1ccc2c(c1)OCO2	.	-11%	4%	-2%	7%	8%	.	-1.8%

Screens deposited in PubChem BioAssay by National Center for Advancing Translational Sciences (NCATS).
